CBX7 inh: CBX7 chromodomain binding inhibitors, primary screen, biochemical, AlphaScreen; AlphaScreen His6-CBX7 / biotin-H3K27me3 peptide binding; active compounds read low; Chromobox protein homolog 7 (Homo sapiens), O95931; actives 1.1% (n = 66,000); normalised signal (fraction of DMSO) (concentration not given with the values); in the data active = normalised signal below about 0.5;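 also: 100 nL library stock added to about 20 µL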
Target sequence (O95931 whole entry, looked up): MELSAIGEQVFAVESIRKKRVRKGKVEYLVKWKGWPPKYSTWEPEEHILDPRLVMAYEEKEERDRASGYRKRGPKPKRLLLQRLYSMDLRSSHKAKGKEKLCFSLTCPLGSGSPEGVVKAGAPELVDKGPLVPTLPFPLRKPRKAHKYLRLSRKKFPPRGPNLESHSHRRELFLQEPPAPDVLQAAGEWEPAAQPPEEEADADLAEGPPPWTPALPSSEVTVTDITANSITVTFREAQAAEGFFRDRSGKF
CBX7 inh z-score: second read-out of CBX7 inh, no call of its own (marks repeat the call); z-score; measured here: z-score of CBX7 signal; some inactives read as strong as hits; reference of the scale not given here;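 same signal on another scale; lower means less binding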
The depositor's hits bear a star. These rows are one share of the data (hit frequency here may not be typical).

Compound,CBX7 inh,CBX7 inh z-score
COc1ccc2oc(C)c(-c3cnc4ccccn34)c2c1,0.98,-0.58
Cc1ccc2cc(CCNC(=O)c3ccc(Cl)cc3)c(=O)[nH]c2c1,0.83,-2.2
CC1(C)Cc2c(c(N3CCOCC3)nc3snc(NC(=O)c4ccccc4)c23)CO1,0.86,-1.5
COc1ccc(Nc2cc(C(=O)NCCCN3CCOCC3)c3ccccc3n2)c(OC)c1,0.81,-2.8
Cc1nc2cc(-c3nc4ccccc4s3)ccc2n1-c1ccccc1,0.79,-0.37
CC(C)CCNC(=O)Cn1c(SCc2cccc(F)c2)nc2ccncc21,0.99,-0.054
CCC(=O)N1CCc2cc(S(=O)(=O)CCC(=O)NC(C)CC)ccc21 (stereo not drawn),1,0.51
CCCn1c(CCCNC(C)=O)nc2ccccc21,0.98,-0.42
COc1ccc(-n2nc(C(=O)N3CCN(C)CC3)c3ccccc3c2=O)cc1,0.99,-0.24
COc1cccc(-n2c(Cc3cc(=O)[nH]c(=O)[nH]3)nnc2SCc2ccc(Cl)cc2)c1,0.9,-1.5
COc1cc(S(=O)(=O)NCCc2c(C)[nH]c3ccc(C)cc23)c(C)cc1C,0.35*,-0.65*
CCOc1cccc(C2Nc3ccccc3NC3=C2C(=O)CC(c2ccc(OC)cc2)C3)c1 (stereo not drawn),0.81,-1.3
CSc1ccc(CN2CCN(Cc3cccc4ccccc34)CC2)cc1,0.57,-5.1
Cc1cccc(NC(=O)c2cccc(OCc3ccccc3)c2)n1,1.1,0.1
C/C(=C\c1ccccc1)c1nc(-c2cccc(C(F)(F)F)c2)no1,1.4,5.9
CCc1ccc(-c2nc(CN3CCCC(C(=O)NCC(OC)OC)C3)c(C)o2)cc1 (stereo not drawn),1,0.2
CC(=O)c1nnn(C2CCCCC2)c1NC1CCCCC1,1,0.033
O=c1c2nnn(Cc3ccc(F)cc3)c2ncn1Cc1ccccc1Cl,0.98,-0.31
O=C(C1CCN(S(=O)(=O)c2cccs2)CC1)N1CCC(Cc2ccccc2)CC1,0.92,-1.7
Cc1cccc(Cc2c(C)nc3c(C(=O)N4CCN(c5cc(Cl)ccc5C)CC4)cnn3c2C)c1,0.86,-3.9
COc1ccccc1-c1nnc(NC(=O)c2ccc(S(=O)(=O)N3CCCC(C)C3)cc2)o1 (stereo not drawn),0.82,-4
CCOCCCNC(=O)c1cn(C2CCCCC2)c(=O)c2c1c1ccccc1n2C,1,0.19
O=C(Cc1ccc(NC2=NC3CS(=O)(=O)CC3S2)cc1)N1CCN(c2ncccn2)CC1 (stereo not drawn),0.96,-0.94
Cc1ccc(-c2noc(CN(C(=O)COc3cccc(C)c3)C(C)C)n2)cc1,1,0.3
Cc1cc(C(=O)Nc2cccc(C(F)(F)F)c2)on1,1,0.5
CC(C)Cc1cc(C(=O)Nc2cccc(Cl)c2)no1,1.2,6.3
CCC(=O)N1CCc2cc(S(=O)(=O)Nc3c(C)cccc3CC)ccc21,1.1,1.1
Cc1ccc(C)c(-c2csc(Nc3ccc(S(=O)(=O)Nc4nc(C)cc(C)n4)cc3)n2)c1,1.1,1.3
Cc1cccnc1NC(=O)CCc1c(C)nc2ncnn2c1C,1.2,3.6
CCOc1ccc(C(=O)Nc2ccc3oc(-c4ccc(C)cc4C)nc3c2)cc1Br,1,0.25
CCN(C(=O)Cc1c(C(=O)O)[nH]c2ccc(Cl)cc12)c1ccccc1C,1,0.33
CC(CCc1ccccc1)NC(=O)C1(c2ccccc2)CCOCC1 (stereo not drawn),0.95,-0.33
Cc1ccc(NC(=O)Cn2c(SCc3cccc(F)c3)nc3ccncc32)cc1F,0.94,-1.7
OCCN(CC#CC(O)(c1ccccc1)c1ccccc1)CCO,1.1,0.86
O=C(CSCc1ccccc1)Nc1nnc(Cc2ccc(Cl)cc2)s1,1.1,1.6
O=C(CCN1C(=O)COc2ccccc21)NCc1ccccc1,1.1,2.1
COc1ccc(Nc2nc(N3CCCC3)c3ccccc3n2)cc1,0.49*,-5*
O=C(CSc1nnc(Cc2cc(=O)[nH]c(=O)[nH]2)n1-c1ccc(Cl)cc1)Nc1ccc(F)cc1,0.95,-0.099
CCc1ccc(Nc2nc3ccccc3nc2NS(=O)(=O)c2ccccc2)cc1,0.81,-5.5
COc1ccccc1NC(=O)CSCc1nc2ccccc2[nH]1,1.1,1.7
c1ccc(CN2CCN(c3nnc(Cc4cccnc4)c4ccccc34)CC2)cc1,0.98,-0.75
O=C(O)CN1C(=O)CCS(=O)(=O)c2ccccc21,0.96,-1.1
O=C(NCc1ccc(F)cc1)c1ccc2c(c1)N(Cc1ccc(Cl)cc1)C(=O)CS2,1.1,3.7
Cn1c(C(=O)N2CCCC(C(=O)NC3CCCCCC3)C2)cc2sccc21 (stereo not drawn),0.9,-3
COC(CNC(=O)c1cc(Nc2ccc(C(C)C)cc2)nc2ccccc12)OC,1.1,0.076
Cc1ccc(NC(=O)CC2NCCNC2=O)cc1Cl (stereo not drawn),1.1,2.8
CCc1nc2c(cnn2-c2ccc(F)cc2)c(=O)n1-c1ccc(OC)c(Cl)c1,0.92,-1.1
Cc1cc(Br)ccc1OCc1nc(-c2cccnc2)no1,1,1
CC(C)CCNC(=O)C1CC(=O)N(C2CCCCCC2)C1 (stereo not drawn),1,0.33
Cc1ccc(CNC(=O)C2CSC(c3ccccc3)C(=O)N2)cc1 (stereo not drawn),1,1.3
C=CCN1C(=O)c2ccccc2Sc2ccc(C(=O)NC3CCCCC3)cc21,1.1,2.7
Cc1ccccc1-c1nc(CSCC(=O)NC2CCCCCC2)c(C)o1,0.99,-0.26
Cc1ccc(C)c(NC(=O)C2=CCN(S(=O)(=O)c3ccc(F)cc3)CC2)c1,1,0.42
CCC(C)NC(=O)CN1C(=O)C(CC)Oc2ccccc21 (stereo not drawn),0.96,-0.44
CCOc1cc2c(cc1OCC)C(c1cccc(C(F)(F)F)c1)NCC2 (stereo not drawn),0.88,-2
CCC(=O)N1CCc2cc(Br)cc(S(=O)(=O)Nc3ccc(C)cc3C)c21,0.94,-1.5
COc1cccc(-c2nc(CSCC(=O)NCc3ccccc3)c(C)o2)c1,1,0.00098
CN(C)c1ccc(C2Nc3ccc(C(=O)c4ccccc4)cc3NC3=C2C(=O)CC(C)(C)C3)cc1 (stereo not drawn),0.73,-4.7
Cc1ccc(NC(=O)CSc2nnc(CNC(=O)c3ccccc3F)o2)cc1Cl,0.84,-2.6
COC(=O)COc1ccc(-c2nnc(Nc3ccc(OC)cc3)c3ccccc23)cc1,0.73,-3.1

Laid out differently: 7 of the compounds above.
Screens in order – CBX7 inh	CBX7 inh z-score
Cc1ccccc1-c1nc(CSCC(=O)NC2CCCCCC2)c(C)o1
    0.99	-0.26
Cc1ccc(C)c(NC(=O)C2=CCN(S(=O)(=O)c3ccc(F)cc3)CC2)c1
    1	0.42
CCC(C)NC(=O)CN1C(=O)C(CC)Oc2ccccc21 (stereo not drawn)
    0.96	-0.44
CCOc1cc2c(cc1OCC)C(c1cccc(C(F)(F)F)c1)NCC2 (stereo not drawn)
    0.88	-2
CCC(=O)N1CCc2cc(Br)cc(S(=O)(=O)Nc3ccc(C)cc3C)c21
    0.94	-1.5
COc1cccc(-c2nc(CSCC(=O)NCc3ccccc3)c(C)o2)c1
    1	0.00098
CN(C)c1ccc(C2Nc3ccc(C(=O)c4ccccc4)cc3NC3=C2C(=O)CC(C)(C)C3)cc1 (stereo not drawn)
    0.73	-4.7

Continued.
Compound,CBX7 inh,CBX7 inh z-score
Fc1ccc(Nc2nc3nonc3nc2Nc2ccc(F)cc2)cc1,0.92,-3
COc1ccc(OC)c(CN2CCN(C3CCN(Cc4ccccc4)CC3)CC2)c1,0.59,-11
Cc1ccc(-c2nc(-c3ccc(Cl)cc3)no2)cc1,1,0.24
O=C1c2cccc3cccc(c23)C(=O)N1CC1CCN(CC(O)COc2ccccc2F)CC1 (stereo not drawn),0.93,-0.47
Cc1nc2cc(C(=O)NC3CCCC(C)C3C)ccc2n1-c1ccc(Br)cc1 (stereo not drawn),1,0.4
O=C(Nc1ccc(F)c(F)c1)C1(S(=O)(=O)c2ccc(Cl)cc2)CC1,1.1,0.12
O=C(O)CCSc1nccn1Cc1ccccc1,0.91,-1.1
O=C(CC(C(=O)N1CCc2ccccc21)n1ccnc1)N1CCc2ccccc2C1 (stereo not drawn),0.89,-2.5
O=C(COc1ccc(Cl)cc1)Nc1ccc2nc3n(c(=O)c2c1)CCCCC3,1,1.3
O=C1CC(N2CCN(Cc3ccc4c(c3)OCO4)CC2)C(=O)N1Cc1ccc(Cl)cc1 (stereo not drawn),0.99,-0.56
Cc1ccc2c(c1)C(c1ccc(F)cc1)N(C(=O)c1ccc(Cl)cc1)CC(=O)N2 (stereo not drawn),1.1,0.87
COc1cc(Cl)c(C)cc1NC(=O)CCc1c(C)nc2ncnn2c1C,1.1,2.3
CCc1ccc(-c2nc(CSCC(=O)NCc3ccccc3)c(C)o2)cc1,0.53,-3.1
Cc1ccc(NC(=O)c2sccc2-n2cccc2)c(Cl)c1,1.1,5.1
CCOC(=O)c1c[nH]n(-c2nc(-c3ccccc3)cs2)c1=O,0.91,-1.2
CCCCOc1ccc(C2C(=O)N(C3CCCCC3)CC(=O)N2CCCC)cc1 (stereo not drawn),1.5,2
Cc1oc(-c2ccccc2)nc1CN1CCCC(C(=O)O)C1 (stereo not drawn),1,0.7
Cc1c(C(=O)N(Cc2ccccc2)C(C)C)oc2ccc(S(=O)(=O)N3CC(C)CC(C)C3)cc12 (stereo not drawn),0.87,-1.8
CC(=O)Nc1ccc(N2C(=O)c3ccc(Br)cc3C2=O)cc1,0.98,-0.51
Cc1c(Cl)cccc1NC(=O)c1cc(-c2ccc(Br)cc2)on1,1.1,0.097
CCCc1nc2ccccc2n1CC(O)COc1cc(OC)cc(OC)c1 (stereo not drawn),0.87,-1.6
COc1ccc(-c2cc(C(=O)Nc3cc(C(F)(F)F)ccc3Cl)no2)cc1,1.3,1.7
O=C(Nc1cccc(C(F)(F)F)c1)C1CCN(S(=O)(=O)c2cccnc2)CC1,1,0.37
CCCCOc1ccc(C(=O)Nc2c3c(nn2-c2ccc(Cl)cc2)CSC3)cc1,1,0.21
Clc1ccc2nc(-c3ccsc3)c(NC3CCCCC3)n2c1,1.1,0.61
CCC(Cc1ccccc1)NC(=O)CC1Oc2ccccc2NC1=O (stereo not drawn),1.3,1.7
OCc1cn(-c2ccccc2)nc1-c1cccc(Br)c1,1,0.42
CCOc1ccc2nc(N3CCCC(C(=O)Nc4ccccc4Cl)C3)sc2c1 (stereo not drawn),1,0.25
COc1cccc(NC(=O)c2cn(C)c(=O)c3cc(OC)c(OC)cc23)c1,1.1,1.4
O=C1c2ccccc2C(Nc2ccc(F)c(Cl)c2)N1c1cccnc1 (stereo not drawn),1,0.17
COc1ccc(-c2cc3nc(C)c(CCC(=O)Nc4cc(C)cc(C)c4)c(C)n3n2)c(OC)c1,1,0.49
COc1ccc(CCNC(=O)Cn2ncc3ccsc3c2=O)c(OC)c1,0.98,-1.1
CCOc1ccccc1N(CC(=O)N1CCC(C)CC1)S(=O)(=O)c1ccccc1,1.1,0.48
c1ccc(-c2nc3nc(-c4ccccc4)c(-c4ccccc4)n3nc2-c2ccccc2)cc1,2.1,2.3
CCC1Oc2ccc(C)cc2N(CC(=O)NCCCN2CCCCC2)C1=O (stereo not drawn),0.98,-0.47
Cc1cc(C)cc(-n2cc3c(=O)n(C)c(=O)n(C)c3c2)c1,0.87,-1.3
CCOC(=O)N1CCC(NC(=O)CS(=O)(=O)Cc2nc(-c3cccc(OC)c3)oc2C)CC1,1,1.2
CCOC(=O)Cc1csc(NC(=O)c2ccc(C)cc2)n1,1.2,2
COc1ccc2nc(C)cc(Nc3ccccc3OC)c2c1,1,0.29
COC(=O)c1cccc(NC(=O)COc2ccccc2C(C)(C)C)c1,0.95,-0.12
CCOC(=O)c1c(NC(=O)c2ccccc2OC)sc(C(=O)N2CCCCC2)c1C,1.1,4.1
CCN1C(=O)CSc2ccc(C(=O)NCc3ccccc3OC)cc21,0.95,-0.48
CCCCc1nc(NCCN2CCOCC2)c(C#N)c2c1COC(C)(C)C2,0.93,-0.79
CCCCNS(=O)(=O)c1ccc2nc(-c3cccnc3)cc(C(=O)NCCCOC(C)C)c2c1,1.1,1.5
Cc1ccc(C)c(NC(=O)CSc2nnc(Cc3cc(=O)[nH]c(=O)[nH]3)n2-c2ccccc2)c1,1.1,0.5
CCOc1ccc(NC(=O)COc2nsnc2N2CCCCC2)cc1,1.1,0.46

3 of the entries above in order of their number in CBX7 inh z-score, lowest first:
Structure | CBX7 inh z-score
CCOc1ccccc1N(CC(=O)N1CCC(C)CC1)S(=O)(=O)c1ccccc1 | 0.48
COc1ccc(-c2cc3nc(C)c(CCC(=O)Nc4cc(C)cc(C)c4)c(C)n3n2)c(OC)c1 | 0.49
Cc1ccc(C)c(NC(=O)CSc2nnc(Cc3cc(=O)[nH]c(=O)[nH]3)n2-c2ccccc2)c1 | 0.5
